Screens from PubChem.
RE007 growth inh: less growth of the S. pombe RE007 Vpr strain. S. pombe RE007 Vpr strain, BacTiter-Glo ATP luminescence, 24 h; control for the full effect not named in the record. Potency, µM (series often up to 92.2 µM), for the others: at the top dose activity change, negative = less growth. 360,000 tested, 0.21% active; active = well fitted falling curve with a large enough effect; inconclusive = small, poorly fitted or top-dose-only effect; inactive = no such curve, though single readings can be large or run the other way;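 note: % is set by controls: 0 for no effect and ±100 for the full control effect; nearly all actives have a fitted effect of over 50% in size; the assay follows cell death caused by Vpr and the record does not say whether a fall means rescue or toxicity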
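Fission yeast RE007 carrying one integrated HIV-1 vpr copy, seeded at OD 0.01 in PMG+AL medium with 23 nL pinned compound. Grown 24 h at 30 degrees; viability read by BacTiter-Glo luminescence after 5 min.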
Marburg entry inh: blocks Marburg virus binding to or entry into cells; Potency, µM (series often up to 37.8 µM), without a hit: top-dose activity change, negative = inhibition, most hits filed as inhibitors; Marburg virus pseudotyped entry inhibition, cell reporter; control for the full effect not named in the record; about a third of the inactives were read at about 46 µM; AID 540276; 300,000 tested, 1.8% active; active = well fitted inhibition curve with a large enough effect; inconclusive = small, poorly fitted or top-dose-only effect, or effect the other way; inactive = flat fitted curve, though single readings scatter; tested in HEK293 cells; about a fifth of its hits are not listed in these tables; note: % is set by controls: 0 for no effect and ±100 for the full control effect; luciferase read-out
Cruzain noTriton: blocks cruzain activity in detergent-free assay. P25779. purified cruzain, Z-FR-AMC fluorescence, no detergent. Potency, µM, for the others: max response, negative = inhibition, actives largely listed as inhibitors. 200,000 tested, 2.3% active;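 note: plate controls were enzyme without inhibitor for no effect and buffer without enzyme for full effect; nearly all actives have a fitted effect of over 40% in size; top concentration of the series not given in the record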
Target sequence (P25779 123-467 limits assumed): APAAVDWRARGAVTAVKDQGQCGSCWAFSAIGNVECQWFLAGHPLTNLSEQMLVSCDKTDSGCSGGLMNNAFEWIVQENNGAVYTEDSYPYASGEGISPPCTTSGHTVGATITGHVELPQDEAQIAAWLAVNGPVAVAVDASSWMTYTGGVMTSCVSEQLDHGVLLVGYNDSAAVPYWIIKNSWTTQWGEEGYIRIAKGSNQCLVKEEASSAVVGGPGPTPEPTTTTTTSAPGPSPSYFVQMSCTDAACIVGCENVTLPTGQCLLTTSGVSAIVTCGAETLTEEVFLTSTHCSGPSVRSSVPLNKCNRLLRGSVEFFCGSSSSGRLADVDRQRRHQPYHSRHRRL
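Purified cruzain at 1.5 nM, pre-incubated 15 min with compound at room temperature in 100 mM sodium acetate pH 5.5, 5 mM DTT, 0.00005% Triton X-100. Reaction started with 2 uM Z-FR-AMC; AMC fluorescence increase over 60 s gives rate.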
Cruzain inh Det: blocks cruzain activity in presence of Triton detergent. purified cruzain, Z-FR-AMC fluorescence, 0.01% Triton. P25779. AID 1478. Potency, µM, for inactives: max response, negative = inhibition, most hits filed as inhibitors. 200,000 tested, 0.43% active;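 note: plate controls were neutral wells for no effect and buffer without enzyme for full effect; nearly all actives have a fitted effect of over 40% in size; top concentration of the series not given in the record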
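Read-out: AMC fluorescence (360 nm excitation, 450 nm emission), four reads over 2 min, first-to-third difference used. Conditions: cruzain 1.5 nM, Z-FR-AMC 2 uM, pH 5.5 acetate, 5 mM DTT, 0.01% Triton X-100.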
SARS PLpro yeast: SARS-CoV PLP inhibition in yeast; AID 485353; S. cerevisiae expressing SARS-CoV PLpro, growth rescue; control for the full effect not named in the record; 330,000 tested, 0.19% active; Potency, µM (highest dose often 32.9 µM), for inactives: top-dose activity, positive = growth rescue; active means well fitted rising curve with a large enough effect; inconclusive means small, poorly fitted or top-dose-only effect; inactive means no such curve, though single readings can be large or run the other way; note: 0% is about no effect; nearly all actives have a fitted effect of over 55% in size; growth read by luminescence after 48 h
NS1 function inh: blocks influenza NS1 protein function; AID 2326; Potency, µM (doses to about 46.1 µM), inactives show top-dose activity, positive = more growth; S. cerevisiae slowed by influenza A NS1, growth recovery by OD600; 270,000 tested, 0.4% active; active means well fitted rising curve with a large enough effect; inconclusive means small, poorly fitted or top-dose-only effect; inactive means no such curve, though single readings can be large or run the other way; note: nearly all actives have a fitted effect of over 50% in size
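In this qHTS, NS1 from influenza A is expressed in budding yeast, where it slows growth. Cells are switched from glucose to 2% galactose medium (pH 6.0, -URA), treated with compound, and growth recovery is read at OD600.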
2A StopGo: FMDV 2A StopGo reporter, luciferase signal; AID 1159524; Potency, µM (highest dose often 57.9 µM), for inactives: at the top dose signal change, negative = less light; 410,000 tested, 1.2% active; human cells with a luciferase reporter of 2A StopGo recoding; control for the full effect not named in the record; active = well fitted falling curve with a large enough effect; inconclusive = small, poorly fitted or top-dose-only effect; inactive = no such curve, though single readings can be large or run the other way; tested in HEK293T cells; note: % is set by controls: 0 for no effect and ±100 for the full control effect; nearly all actives have a fitted effect of over 45% in size; luciferase light after 4 h
Lassa entry inh: blocks Lassa virus binding to or entry into cells; Lassa virus pseudotype entry inhibition, cell reporter; control for the full effect not named in the record; Potency, µM (top dose mostly 37.9 µM), for the others: at the top dose activity change, negative = inhibition, usual class: inhibitors; 300,000 tested, 1.2% active; active means well fitted inhibition curve with a large enough effect; inconclusive means small, poorly fitted or top-dose-only effect, or effect the other way; inactive means flat fitted curve, though single readings scatter; tested in HEK293 cells; note: % is set by controls: 0 for no effect and ±100 for the full control effect; nearly all actives have a fitted effect of over 50% in size; luciferase read-out
An asterisk follows results filed as active; ? = inconclusive; . = not tested or not shown; & = joins results of further samples; [ ] = dose if it differs, or a comment. Unless noted, calls come from the whole dose curve; as a rule, active = well fitted curve in the direction sought with a large enough effect; inconclusive = small, poorly fitted or top-dose-only effect, or another doubt; inactive = no such curve, though single readings can be large; an effect the other way counts as inactive or inconclusive. Potency is the fitted concentration of half-maximal effect.

SMILES	RE007 growth inh	Marburg entry inh	Cruzain noTriton	Cruzain inh Det	SARS PLpro yeast	NS1 function inh	2A StopGo	Lassa entry inh
CCN(CC)CCCNC(=O)c1cc(Sc2nnc(C)s2)nc2ccccc12	-9%	?	-5%	-1.6%	2%	-4%	-25%	?
CC(=O)OC1CC2(C)/C(=N\O)CCC2C2CCc3cc(O)ccc3C12 (centres undefined)	-11%	.	.	.	0%	-1%	-15%	.
O=C(/C=C/c1ccccc1Cl)NCCc1ccccc1	-8%	?	5%	-4.2%	-11%	-30%	56%[activator]	-25%
CCCC(=O)Nc1cc(=O)[nH]c2ncnn12	-13%	?	-4%	2.6%	-1%	?	-20%	26%
CCOC(=O)C1CCN(C(=O)c2ccccc2NS(=O)(=O)c2ccc(F)c(F)c2)CC1	-11%	-15%	14%	-1.6%	1%	-4%	16%	?
Cc1ccc2nc(C)c(C(=O)N/N=C/c3ccccc3[N+](=O)[O-])cc2c1	-4%	-6%	19%	-2.8%	-1%	10%	1%	-3%
CCC(C)n1c(O)c(C=NCCN2CCOCC2)c(=O)[nH]c1=S (centres undefined)	10%	-3%	.	.	0%	4%	-8%	-5%
CCCCCCNC(=O)CCc1nc2cccnc2n1Cc1ccc(OC)cc1	-4%	.	.	.	-1%	1%	-8%	.
Cc1occc1-c1nnc(SCC(N)=O)n1Cc1ccccc1	9%	-1%	-3%	1.1%	-1%	-2%	12%	-17%
COc1cc(C2C(C(=O)c3sc(C)nc3C)=C(O)C(=O)N2CCN(C)C)cc(OC)c1OC (centres undefined)	1%	0%	-3%	3.0%	-2%	-7%	-24%	0%
O=C(Cc1ccc(F)cc1)N1CCC(CC2CC(c3ccc(Cl)cc3)=NO2)(C(=O)NCC2CCCCC2)CC1 (centres undefined)	-4%	.	.	.	-1%	23%	-12%	.
O=C(CSc1nnc(-c2ccccc2)o1)Nc1ccccc1F	-7%	.	-7%	4.9%	-4%	-16%	26%	.
COc1cccc(-c2nnc3n(Cc4ccccc4Cl)c(=O)c4ccccc4n23)c1O	.	-6%[46.1 µM]	-7%	-3.2%	.	.	-26%	?
Cc1ccc(Cn2c(=O)c3ccccc3n3c(-c4ccccc4)nnc23)cc1	.	5%[46.1 µM]	6%	-3.7%	.	.	?	-6%[46.1 µM]
O=C(CCc1ccc(S(=O)(=O)N2CCOCC2)cc1)Nc1ccc2c(c1)OCCO2	-1%	.	.	.	-1%	3%	-17%	.
CCOC(=O)C1CCN(C(=O)COC(=O)c2cccc(NS(=O)(=O)c3ccccc3)c2)CC1	2%	1%[46.1 µM]	.	.	.	.	-10%	1%
CC(C)(OC1OC(CO)C(O)C(O)C1O)[C@H]1Oc2ccc3ccc(=O)oc3c2[C@H]1O (some centres undefined)	6%	15%	-15%	-1.6%	-13%	17%	2%	-14%
CCOC(=O)c1c(C)nc2c(c1-c1ccccc1)C(=O)c1ccccc1-2	-6%	?	?	-4.3%	-28%	-2%	7%	?
CCOc1ccc(-c2nn(-c3ccccc3)cc2C2NC(=O)NC(C)=C2C(=O)OC(C)C)cc1 (centres undefined)	.	?	7%	-13%	.	.	-5%	-23%[46.1 µM]
CCOC(=O)C(C)Oc1ccc(NC(=O)C(Cl)(Cl)Cl)cc1 (centres undefined)	-7%	?	.	.	-3%	-3%	-3%	9%

Profiles, quoted from the list. Order of values: RE007 growth inh, Marburg entry inh, Cruzain noTriton, Cruzain inh Det, SARS PLpro yeast, NS1 function inh, 2A StopGo, Lassa entry inh
O=C(/C=C/c1ccccc1Cl)NCCc1ccccc1 across the screens: -8%, ?, 5%, -4.2%, -11%, -30%, 56%[activator], -25%
COc1cccc(-c2nnc3n(Cc4ccccc4Cl)c(=O)c4ccccc4n23)c1O across the screens: ., -6%[46.1 µM], -7%, -3.2%, ., ., -26%, ?
CCOC(=O)c1c(C)nc2c(c1-c1ccccc1)C(=O)c1ccccc1-2 across the screens: -6%, ?, ?, -4.3%, -28%, -2%, 7%, ?

Continued:
SMILES	RE007 growth inh	Marburg entry inh	Cruzain noTriton	Cruzain inh Det	SARS PLpro yeast	NS1 function inh	2A StopGo	Lassa entry inh
COc1ccc(CCNC(=O)C2CCN(S(=O)(=O)N3CCCCCC3)CC2)cc1OC	-5%	5%&0%	?	3.1%	3%	-16%	-21%	2%
CCn1cc(C(=O)NCc2ccc3c(c2)OCO3)c(=O)c2cc(S(=O)(=O)N(C)C)ccc21	-12%	22%&-21%	?	-6.2%	-24%	-22%	-5%	-7%&-19%
CC(C)c1ccc(C2C3=C(COC3=O)Nc3cc4c(cc32)OCO4)cc1 (centres undefined)	20%	?	.	.	0%	0%	5%	?
CCOc1ccccc1NC(=O)C(OC(=O)c1cc(C)oc1C)c1ccccc1 (centres undefined)	11%	?	-1%	-3.8%	3%	-23%	9%	?
COc1ccc(/C=C/c2ccc3c(Br)ccc(O)c3n2)cc1	-3%	?	.	.	0%	1%	-3%	-24%[46.1 µM]
CC1(C(=O)NC2CCCCCCC2)CCC(=O)N1Cc1cccnc1 (centres undefined)	-4%	9%	6%	0.3%	4%	-5%	-6%	1%
Cc1ccc(CNC(=O)C2CCCN(S(C)(=O)=O)C2)cc1 (centres undefined)	10%	?	-11%	1.5%	-6%	0%	13%	-18%
Cc1ccc(S(=O)(=O)NN=C2C(=O)C3CCC2C3Cl)cc1 (centres undefined)	-2%	12%	.	.	.	.	21%	.
O=C(NCC(c1cccnc1)N1CCN(c2ccc(F)cc2)CC1)Oc1ccccc1 (centres undefined)	0%	-12%	14%	-3.7%	-3%	-47%	.	-2%
Cc1noc(C(=O)N2CCN(c3ccc(F)cc3)CC2)c1Cl	4%	.	5%	-2.7%	?	-7%	0%	.
CC(C(=O)Nc1cccnc1)N1C(=O)C2C3C=CC(C3)C2C1=O (centres undefined)	12%	17%	9%	5.0%	6%	-11%	1%	2%
CC(=O)Oc1cccc(C(=O)Nc2ccc3c(c2)C(=O)N(CC2CCCO2)C3=O)c1 (centres undefined)	1%	10%	.	.	-2%	10%	10%	8%
Cc1cccc(N(C(=O)c2snc(C(N)=O)c2N)C(C(=O)NCC2CCCO2)c2ccc(N(C)C)cc2)c1C (centres undefined)	-3%	-21%[46.1 µM]	.	.	6%	3%	1%	?
O=C(CN1C(=O)/C(=C/c2ccccc2Cl)SC1=S)NC1CCS(=O)(=O)C1 (centres undefined)	-2%	.	.	.	-2%	-5%	-21%	.
Cc1ccc(NC2CCCN(C(=O)C3CCCCC3)C2)cc1C (centres undefined)	3%	.	.	.	3%	-43%	-12%	.
O=C(CSc1ccccn1)N1CCN(c2ncc(C(F)(F)F)cc2Cl)CC1	1%	-15%	.	.	0%	0%	?	?
CC(C)OCCCn1c(=S)[nH]c2ccc(N3CCOCC3)cc2c1=O	-4%	?	-2%	-8.2%	4%	2%	?	5.8µM*
CCOC(=O)c1ccc(NC(=O)CN2C(=O)NC3(CCC(C)CC3)C2=O)cc1 (centres undefined)	1%	-10%[14.2 µM]	.	.	0%	.	0%	-6%
CCCNC(=O)C1CCC(Cn2c(=O)c3sccc3n(CC(=O)N3CCCC3)c2=O)CC1 (centres undefined)	.	.	-5%	-0.9%	.	.	0%	-2%[46.1 µM]
O=C(Nc1nc2ccccc2n1CCN1CCCC1)c1ccc(Cl)cc1	-9%	?	?	-7.6%	1%	-5%	0%	?
CCOC(=O)C1CCN(c2nc3ccccc3n2CC(=O)c2ccccc2)CC1	-10%	0%[46.1 µM]	.	.	0%	.	-15%	-2%[46.1 µM]
CCCCOc1ccc(CN2C(=O)C(=O)c3cc(Br)cc(C)c32)cc1OC	.	?	-26%	-5.0%	.	.	?	?
COC(=O)C(Cc1ccccc1)OS(N)(=O)=O (centres undefined)	4%	.	.	.	3%	-4%	-7%	.
CC(=O)NC1C(=O)N(Cc2ccccc2)c2ccc(Br)cc21 (centres undefined)	3%	.	.	.	-1%	?	-11%	.
CCC1CCCCN1C(=O)COC(=O)CN(C)S(=O)(=O)c1ccc(NC(C)=O)cc1 (centres undefined)	-3%	21%	.	.	1%	.	-24%	-3%
COc1ccc2[nH]c(=O)c(CN(CCc3ccccc3)Cc3nnnn3CC3CCCO3)cc2c1 (centres undefined)	8%	-4%&11%	0%	-2.9%	-7%	-10%	.	?
COc1ccc(C(=O)c2sc(Nc3cccc(OC)c3)c(C(=O)Nc3cccc(C)c3C)c2N)cc1	1%	21µM*	6.3µM*	-0.3%	7%	13%	-10%	?
CCC(=O)NNc1ncnc2c1cnn2-c1ccccc1	8%	5%[46.1 µM]	.	.	0%	.	19%	18%
Cc1cccc(NC(=O)C(C)SCc2ccccc2)c1 (centres undefined)	4%	.	.	.	-2%	-9%	20%	.
COc1ccccc1CNc1nc2c(S(=O)(=O)c3ccccc3)nnn2c2ccc(Cl)cc12	.	28%[46.1 µM]	12%	-3.1%	.	.	5%	.
CCCCn1c(N)c(N(CC)C(=O)c2ccc([N+](=O)[O-])c(C)c2)c(=O)[nH]c1=O	-12%	-20%[46.1 µM]	.	.	-7%	4%	2%	0%

Given in CSV form: part of the list above.
Compound,RE007 growth inh,Marburg entry inh,Cruzain noTriton,Cruzain inh Det,SARS PLpro yeast,NS1 function inh,2A StopGo,Lassa entry inh
CCCCn1c(N)c(N(CC)C(=O)c2ccc([N+](=O)[O-])c(C)c2)c(=O)[nH]c1=O,-12%,-20%[46.1 µM],.,.,-7%,4%,2%,0%
CCC1CCCCN1C(=O)COC(=O)CN(C)S(=O)(=O)c1ccc(NC(C)=O)cc1 (centres undefined),-3%,21%,.,.,1%,.,-24%,-3%
CCOC(=O)C1CCN(c2nc3ccccc3n2CC(=O)c2ccccc2)CC1,-10%,0%[46.1 µM],.,.,0%,.,-15%,-2%[46.1 µM]
